HPGD inh: blocks human HPGD enzyme activity; purified HPGD, NADH fluorescence kinetic, PGE2 substrate; Potency, µM, for the others: top-dose activity change, negative = inhibition, most hits filed as inhibitors; 150,000 tested, 4.3% active; active = well fitted inhibition curve with a large enough effect (not every such curve was filed as active); inconclusive = small, poorly fitted or top-dose-only effect, or another doubt; inactive = no such curve, though single readings can be large or run the other way;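 further: top concentration of the series not given in the record; plate controls included wells without enzyme; inactives centre near -10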
Target sequence (P15428 whole entry, looked up): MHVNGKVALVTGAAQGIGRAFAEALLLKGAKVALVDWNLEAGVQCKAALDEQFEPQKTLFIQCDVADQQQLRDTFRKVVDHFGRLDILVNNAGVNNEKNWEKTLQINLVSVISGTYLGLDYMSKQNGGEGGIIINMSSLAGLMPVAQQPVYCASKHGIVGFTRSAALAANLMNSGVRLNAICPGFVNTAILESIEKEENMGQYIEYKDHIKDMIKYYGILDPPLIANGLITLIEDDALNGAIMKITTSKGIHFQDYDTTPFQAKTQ
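20 nM HPGD preincubated 15 min at room temperature with compound in 50 mM Tris-HCl pH 8, 0.01% Tween 20. Started with 1 mM NAD+ and 30 uM prostaglandin E2; NADH fluorescence (360/450 nm) read 5 times over 30-s intervals, last minus first.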
Active calls of the source: *; ? = inconclusive; ! = a repeat was not active. On the % scale 0 is the no-effect control and ±100 the full control effect; potency means the concentration at half of the fitted maximal effect. These rows are one share of the data; rates above refer to the full screens.

SMILES	HPGD inh
CCCCNS(=O)(=O)c1ccc(OC)c(C)c1	-5%
C[C@@H]1O[C@@H](OC[C@H]2O[C@@H](Oc3c(-c4cccc(O)c4O)oc4cc(O)cc(O)c4c3=O)[C@H](O)[C@@H](O)[C@@H]2O)[C@H](O)[C@H](O)[C@H]1O	-4%
COc1cccc([C@@H]2Oc3ccc(OC)cc3C[C@H]2OC(=O)Nc2cc(OC)c(OC)c(OC)c2)c1	-12%
COC(=O)c1[nH]c2ccc(C)cc2c1NC(=O)CCN1CCN(Cc2ccc3c(c2)OCO3)CC1	-27%
COc1cccc(OCC(O)CN2CCC(C)CC2)c1 (centres undefined)	-12%
COc1ccc(N2CCN(C(CNC(=O)C(=O)NCCC3=CCCCC3)c3ccco3)CC2)cc1 (centres undefined)	-3%
C=CCSSSCC=C	28µM*
COc1ccc(S(=O)(=O)N2CCN(CC(=O)Nc3cc(OC)cc(OC)c3)CC2)cc1	-12%
CCc1oc2ccccc2c1C(=O)c1cc(Br)c(O)c(Br)c1	18µM*!
COc1ccc(-c2cc(C(=O)O)[nH]n2)cc1OC	-3%
Cn1nc(-c2ccccc2F)c2cc(C(=O)Nc3ccc4c(c3)OCCO4)sc21	?
COc1ccc(NC(=O)N2CC[C@@]3(CCCN(C(=O)c4c(C)noc4C)C3)C2)cc1	-5%
COC(=O)c1sc(NC(=S)NC(=O)c2cccc(C)c2)nc1C	-4%
CN(C)CCN1C(=O)c2oc3ccc(Cl)cc3c(=O)c2C1c1cccc(Br)c1 (centres undefined)	-9%
COc1cc(C)ccc1OCCOc1c(C)cccc1Cl	-7%
COc1ccccc1CNC(=O)C(=O)NCC1OCCN1C(=O)c1cccs1 (centres undefined)	-6%
COc1ccc(Cl)cc1NC(=O)CN(C)C(C)C(=O)NCC1CCCCC1 (centres undefined)	-1%
Cc1ccc(-n2c(SCC(=O)NNC(=S)Nc3ccccc3)nc3ccccc3c2=O)cc1	-21%
COc1ccc(C2CC(=O)c3c(O)cc(OC4OC(COC5OC(C)C(O)C(O)C5O)C(O)C(O)C4O)cc3O2)cc1O (centres undefined)	-3%
Cc1ccc(Cl)cc1N1CCN(C(=O)CSc2ccsc2[N+](=O)[O-])CC1	?
C(=N\c1nc2ccccc2n1CCN1CCCCC1)/c1ccc2c(c1)OCO2	-7%
COc1ccc(-c2cc(-c3ccc(OC)cc3)[nH]n2)cc1	-19%
O=C(NC1CCCC1)c1nc2c(nnn2Cc2cccc(Cl)c2)c(=O)[nH]1	2.5µM*
COc1ccc2[nH]c(C)c(CCN(Cc3cccs3)C(=S)Nc3ccccc3OC)c2c1	-11%
O=C(Nc1ccc(F)cc1)c1ccccc1	-12%

New compounds follow:
SMILES	HPGD inh
Cc1ccc(-c2nnc(N)s2)cc1	-30%
CN(Cc1ccccc1)C(=O)COC(=O)c1cc(-c2ccc(Cl)s2)nc2ccccc12	?
Cc1ccc2[nH]c3c(c2c1)CC/C(=C/c1ccccc1)C3=O	-15%
O=C(CCC1CCCCC1)Nc1ccccc1O	20µM*
COc1ccc(NS(=O)(=O)c2cccc(C(=O)N/N=C(\C)c3ccc(-n4ccnc4)cc3)c2)cc1	-23%
COc1cc(OC)c2nc(C)c3c(c2c1)N(c1ccc(O)cc1)CC3	-10%
CC1=C(C(=O)OC(C)C)C(c2cccnc2)n2ncnc2N1 (centres undefined)	-7%
CC(=O)N1[C@H](Cc2ccccc2)C=C[C@]1(C)C(=O)NCc1cc(F)cc(C(F)(F)F)c1	-8%
Cc1ccc(S(=O)(=O)Nc2ccc(Cl)cc2)cc1NC(=O)c1cc2c(s1)CCCC2	-14%
CCC(=O)Nc1cc(C(=O)OCC(=O)c2ccccc2Cl)ccc1C	-3%
CC1CC(C)CN(CCOc2ccc(Br)cc2)C1 (centres undefined)	-4%
COc1cc(NC(=S)NC(=O)c2ccc(C(C)(C)C)cc2)ccc1NC(=O)c1cccs1	-9%
COC(=O)C1=C(NC(=O)CCCCl)CCS1	-11%
CC(NC(=O)C1CC1)C(c1cccs1)N1CCN(c2ccccc2)CC1 (centres undefined)	-7%
Cc1ccc(/C(N)=N/OC(=O)c2ccc(C)cc2Cl)cc1	?
CCC1CCCCN1CCNC(=O)CCS(=O)(=O)c1ccc(Br)cc1 (centres undefined)	-9%
O=C(N/N=C/c1cccnc1)C(O)c1ccccc1 (centres undefined)	-7%
COc1ccc2nccc(C(=O)O)c2c1	5%
Cc1cc(/C=N/NC(N)=O)c(C)c(CO)c1	-7%
N#Cc1nc(-c2ccc(Cl)cc2)oc1NCc1ccco1	27%
Cn1c(C(=O)N2CCN(c3ncccn3)CC2)cc2c(=O)n(C)c3ccccc3c21	-17%
COc1cc(S(=O)(=O)N2CCC(c3nc4ccccc4s3)CC2)ccc1S(=O)(=O)N1CC(C)CC(C)C1 (centres undefined)	-10%
COc1ccc(-c2nnc(SCC(=O)N3CCOCC3)n2C)cc1OC	-9%
O=C(c1ccccc1-c1ccccc1)N1CCOCC1	-2%
c1ccc(CSc2nnc(-c3ccco3)n2Cc2ccccc2)cc1	-25%

Random excerpt: 2 records from the list.
SMILES	HPGD inh
N#Cc1nc(-c2ccc(Cl)cc2)oc1NCc1ccco1	27%
COc1cc(S(=O)(=O)N2CCC(c3nc4ccccc4s3)CC2)ccc1S(=O)(=O)N1CC(C)CC(C)C1 (centres undefined)	-10%

Continued.
SMILES	HPGD inh
CCCCC(=Nc1ccccc1OC)C1=C(O)CC(c2ccccc2)CC1=O (centres undefined)	-2%
COc1ccc(C(=O)NC(=O)COC(=O)c2ccc3ncsc3c2)cc1	-9%
COc1cc(/C=N/NC(=S)NCCN2CCOCC2)ccc1O	-28%
O=C(c1ccc2nc(N3CCOCC3)sc2c1)N1CCC(Cc2ccccc2)CC1	?
S=c1[nH]ncn1/N=C/c1ccc(Br)cc1	22µM*
Cc1ccccc1CSCC(=O)N/N=C/c1cccs1	-11%
Cc1nc(N2CCN(C)CC2)c2c(C)c(C(=O)Nc3ccc(F)cc3)sc2n1	-7%
CN(C)/C=C/C(=O)c1cccc(Cl)c1	25µM*
CCN(CC)CCCN1C=C2C(=O)C(C)(OC(=O)c3cccs3)C(=O)C=C2C=C1CCCC(=O)OC (centres undefined)	-1%
COc1cccc([C@@H]2Oc3ccc(OC)cc3C(=O)[C@H]2OC(=O)NCc2ccc3c(c2)OCO3)c1	?
O=C(N/N=C\C=C\c1ccc2c(c1)OCO2)c1cccnc1	-13%
CC(C)CCNC(=O)NC(=O)COC(=O)C1CCN(S(=O)(=O)c2ccccc2F)CC1	-1%
Cc1c(C(=O)Nc2nc3ccccc3[nH]2)oc2c(Cl)cccc12	?
CCc1ccc2c(c1)c1nc(C)sc1n2CC	28µM*
Cc1ccc(NC(=O)CC2NCCNC2=O)cc1 (centres undefined)	-3%
CCn1c(=O)c(=O)[nH]c2cc(C(=O)N3CCN(c4ccccc4F)CC3)ccc21	-10%
CC(=O)Nc1sc(N)nc1-c1ccccc1	-7%
CCC(C)(C(=O)Nc1ccccc1C)N(C(=O)CNC(C)=O)c1ccccc1C (centres undefined)	-3%
O=C(C1CCN(S(=O)(=O)c2ccc3c(c2)OCCO3)CC1)N1CCc2ccccc21	-2%
OCCOc1ccc(C2=NCCO2)cc1	-15%
Cc1cc(=O)[nH]c(SCC(=O)N2CCC(C(N)=O)CC2)n1	0%
O=C(CSc1nnc(CNC(=O)c2ccccc2F)o1)NCC1CCCO1 (centres undefined)	-9%
CO/N=C(/CNC(=O)c1ccc(Cl)cc1Cl)c1ccc(Cl)cc1	-4%
Cc1onc(-c2ccccc2Cl)c1C(=O)Nc1sc2c(c1C#N)CCC2	?
CCOC(=O)N/N=C/c1c(C)nn(-c2cccc(C(F)(F)F)c2)c1Cl	-19%

Remaining list, next part:
SMILES	HPGD inh
Cc1cc(C)n(Cc2ccc(Cl)c(Cl)c2)c(=O)c1S(=O)(=O)c1ccccc1	-3%
CC1(c2ccc3noc(-c4ccccc4)c3c2)OCCO1	-15%
COc1ccc(N2CCN(CCOc3ccc4c(C)cc(=O)oc4c3)CC2)cc1	-23%
CCc1nc2c(c(SC)nn2-c2ccccc2)c(N)c1C(=O)OC	?
CCCCC/C=C\C/C=C\C/C=C\C/C=C\CCCCCC(=O)NCCCC(=O)O	-4%
O=C(CCCCl)NC(=S)Nc1cc(C(F)(F)F)ccc1N1CCOCC1	-9%
CCN(CC)S(=O)(=O)c1ccc(N2CCOCC2)c(NS(=O)(=O)c2cc(C(C)(C)C)ccc2C)c1	-15%
CC(NC(=O)c1ccc(=O)oc1)c1ccccc1 (centres undefined)	-18%
CC(C)CNC(=S)NNC(=O)c1csc2ccccc12	-10%
Cc1c(NC(=O)c2c(F)c(F)c(F)c(F)c2F)c(=O)n(-c2ccccc2)n1C	-9%
Cc1ccc(N2C(=O)CC(NNC(=O)c3cccc(S(=O)(=O)N4CCCC4)c3)C2=O)cc1 (centres undefined)	-12%
CN(C)c1ccc(/C=N/NC(=O)C(O)(c2ccccc2)c2ccccc2)o1	?
COc1cccc(NC(=S)NCCC(c2ccccc2)c2ccccc2)c1	-8%
Cn1c(-c2ccc(F)cc2)cnc1NCc1cc2c(cc1[N+](=O)[O-])OCO2	-17%
CSc1ccccc1C(=O)Nc1cccc(N(C)S(C)(=O)=O)c1	-2%
CCOC(=O)c1c(C)nc2ccccc2c1-c1ccccc1	-27%
O=C(/C=C/c1ccco1)NC(=S)Nc1ccc(N2CCOCC2)c(Cl)c1	-16%
COc1ccc(CC(=O)Nc2cc(C)on2)cc1OC	-6%
CCNc1nc(N)nc(-c2cc(Cl)ccc2O)n1	-27%
COc1cc(/C=C/C(=O)c2ccc(Cl)s2)cc(OC)c1O	-28%
CN1CCCC1=Nc1c2c(nc3ccccc13)N(C)CC2	?
COc1ccccc1CN1CCN(C(CC(C)C)c2nnnn2Cc2cccs2)CC1 (centres undefined)	-12%
CCc1c(C)c(C#N)c2nc3ccccc3n2c1NCCN(C)C	-9%
CCC(C)(C(=O)NC1CCCCC1)N(CC1CCCO1)C(=O)CNC(=O)c1ccccc1 (centres undefined)	-5%
O=C(Nc1cnn(Cc2ccc(Cl)cc2Cl)c1)c1noc2c1CCCC2	-26%

Remaining list, next part:
SMILES	HPGD inh
COC(=O)Cn1c(C(=O)N2CCCC2)cc2c1C[C@H]1CN(C(=O)c3ccccc3)[C@@](Cc3ccccc3)(C(=O)OC)[C@@H]21	-2%
COc1ccc(C(=O)N2CCC3(CC2)CN(c2ncccn2)C3)cc1	?
N#CCSc1nc2c(sc(=S)n2Cc2ccco2)c(=O)n1-c1ccc(F)cc1	-8%
O=C(COc1ccc(Cl)cc1Cl)NCCCCc1ccccc1	-21%
CCCCCC(=O)Nc1nc2ccccc2[nH]1	-18%
OC1(c2cn(Cc3ccccc3)nn2)CCCCC1	-17%
N/C(=N\OC(=O)CCC1CCCCC1)c1ccc([N+](=O)[O-])cc1	2%
CC1(N)CCC(C(C)(C)N)CC1 (centres undefined)	-7%
CCN1CCn2c1nc(N1CCCCC1)nc2=O	0%
CCOC(=O)c1nnn(CC(=O)Nc2cccc(F)c2)c1C(=O)OCC	-10%
N#C/C(=C(/O)COC(=O)CSc1ccc(Cl)cc1)c1nc2ccccc2[nH]1	-7%
Cc1nc2nc(SCC(=O)C(C)(C)C)[nH]c2cc1Br	?
c1ccc(N2CCN(Cc3nnnn3C3CCCCC3)CC2)cc1	-7%
COc1ccc(S(=O)(=O)Nc2cc(C(=O)NC3CCCCCC3)ccc2N2CCOCC2)cc1	-11%
CCc1cc(C(=O)NNC(=S)NCc2ccccc2)cs1	-3%
Cc1ccc(NC(=O)NNC(=O)Cn2nc(-c3ccccc3)c(-c3ccccc3)c(C#N)c2=O)cc1	3%
Cc1cccc(C(=O)O/N=C(\N)c2cccc([N+](=O)[O-])c2)c1	-21%
O=C(CCN1CCCCC1)c1ccccc1	-21%
COC(=O)c1ccccc1NC(=O)CN(c1ccc(OC)cc1)S(C)(=O)=O	-5%
Cc1ccc(C)c(N2CCN(S(=O)(=O)c3ccc4c(c3)oc(=O)n4C)CC2)c1	-4%
C/C=C/c1ccc(OCCOc2cc(C=O)ccc2OC)c(OC)c1	-16%
COc1nc(OC)nc(N(C)CCO)n1	-9%
O=c1c2ccccc2cnn1Cc1n[nH]c(=S)n1-c1ccc(Cl)cc1Cl	-9%
COc1ccc(C(=O)Cn2c(=O)c(CCC(=O)O)nn3c4ccccc4nc23)cc1OC	-30%

16 compounds out of the list, sorted by SMILES length, lowest first.
SMILES	HPGD inh
CC1(N)CCC(C(C)(C)N)CC1 (centres undefined)	-7%
COc1nc(OC)nc(N(C)CCO)n1	-9%
CCN1CCn2c1nc(N1CCCCC1)nc2=O	0%
OC1(c2cn(Cc3ccccc3)nn2)CCCCC1	-17%
CCc1cc(C(=O)NNC(=S)NCc2ccccc2)cs1	-3%
O=C(COc1ccc(Cl)cc1Cl)NCCCCc1ccccc1	-21%
c1ccc(N2CCN(Cc3nnnn3C3CCCCC3)CC2)cc1	-7%
C/C=C/c1ccc(OCCOc2cc(C=O)ccc2OC)c(OC)c1	-16%
CCOC(=O)c1nnn(CC(=O)Nc2cccc(F)c2)c1C(=O)OCC	-10%
O=c1c2ccccc2cnn1Cc1n[nH]c(=S)n1-c1ccc(Cl)cc1Cl	-9%
Cc1cccc(C(=O)O/N=C(\N)c2cccc([N+](=O)[O-])c2)c1	-21%
N#CCSc1nc2c(sc(=S)n2Cc2ccco2)c(=O)n1-c1ccc(F)cc1	-8%
Cc1ccc(C)c(N2CCN(S(=O)(=O)c3ccc4c(c3)oc(=O)n4C)CC2)c1	-4%
COc1ccc(S(=O)(=O)Nc2cc(C(=O)NC3CCCCCC3)ccc2N2CCOCC2)cc1	-11%
Cc1ccc(NC(=O)NNC(=O)Cn2nc(-c3ccccc3)c(-c3ccccc3)c(C#N)c2=O)cc1	3%
COC(=O)Cn1c(C(=O)N2CCCC2)cc2c1C[C@H]1CN(C(=O)c3ccccc3)[C@@](Cc3ccccc3)(C(=O)OC)[C@@H]21	-2%

Screening results (PubChem)
